Screening data from PubChem BioAssay.
MLL AF4-AF9 inh: blocks AF4 peptide binding to human AF9. P42568. AlphaScreen, biotin-AF4 peptide binding to FLAG-AF9. inhibition, % at 10 µM. 0.47% of 350,000 active;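 active = every replicate reaching a set inhibition limit, whatever the replicate mean, cut at about 25% in these data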;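 also: 0% = plate neutral control median and 100% = total signal loss; the record names both 10 and 1 µM as test concentration; the first replicate is given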
Target sequence (P42568 whole entry, looked up): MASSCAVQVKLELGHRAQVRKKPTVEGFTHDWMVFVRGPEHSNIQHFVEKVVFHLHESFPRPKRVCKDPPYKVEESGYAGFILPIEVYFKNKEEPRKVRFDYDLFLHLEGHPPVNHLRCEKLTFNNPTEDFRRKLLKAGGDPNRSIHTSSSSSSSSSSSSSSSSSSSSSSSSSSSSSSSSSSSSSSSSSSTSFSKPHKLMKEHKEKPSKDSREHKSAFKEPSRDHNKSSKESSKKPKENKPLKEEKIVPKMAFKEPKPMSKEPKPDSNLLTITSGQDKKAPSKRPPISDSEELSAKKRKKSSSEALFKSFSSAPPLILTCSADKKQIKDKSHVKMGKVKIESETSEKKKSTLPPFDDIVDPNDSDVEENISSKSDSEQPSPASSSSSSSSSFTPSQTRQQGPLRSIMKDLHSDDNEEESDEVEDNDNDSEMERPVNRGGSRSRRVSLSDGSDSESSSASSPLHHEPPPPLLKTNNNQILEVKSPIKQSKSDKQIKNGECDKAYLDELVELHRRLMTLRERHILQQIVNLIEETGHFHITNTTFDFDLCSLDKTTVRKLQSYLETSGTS
rRNA inh HTS: inhibitors of bacterial rRNA selective over humanized ribosomes; GFP signal change (wild-type ribosome), % (concentration not given with the values); E. coli WT GFP vs humanized-ribosome RFP mutants, fluorescence, 24 h; active compounds read low; DMSO median 0, no signal -100; 1.6% of 350,000 active;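 active = significant combined selectivity score with lowered wild-type GFP, culture density cut under 30%, mutant RFP and density less affected; inactive = any of these conditions unmet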; also: one replicate is shown; some compounds called inactive have numbers as strong as hits
FGF22 binding: binders of recombinant human FGF22 by thermal shift | Q9HCT0 | SYPRO orange fluorescence; percent of sucrose octasulfate shift, DMSO zero | calls only at 9.99 µM | 1.5% of 340,000 active;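 active = melting point raised past a set limit in the mean and every replicate; three in four hits are not shown here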
Target sequence (Q9HCT0 whole entry, looked up): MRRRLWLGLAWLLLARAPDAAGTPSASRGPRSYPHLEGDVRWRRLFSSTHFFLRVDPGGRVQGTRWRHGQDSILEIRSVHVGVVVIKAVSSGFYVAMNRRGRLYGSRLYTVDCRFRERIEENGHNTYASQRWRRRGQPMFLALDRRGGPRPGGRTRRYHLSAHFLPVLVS
rRNA inh HTS OD600: also measured in rRNA inh HTS; calls as there; OD600 change, %; measured here: OD600 growth;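 optical density of the mix in the first replicate; 0 = DMSO median and -100 = no signal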
rRNA inh HTS RFP: also measured in rRNA inh HTS; calls as there; RFP signal change, %; measured here: RFP humanized mutant strains;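 first replicate; 0 = DMSO median and -100 = no signal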
* hit, by the source's call; i = inactive; . = no result given; + = active, no number; & = joins results of further samples. Not all compounds are listed, so the mix of outcomes need not match the whole.

structure	MLL AF4-AF9 inh	rRNA inh HTS	rRNA inh HTS OD600	rRNA inh HTS RFP	FGF22 binding
COc1ccc(S(=O)(=O)Nc2ccc3c(c2)C(=O)N([C@H](C)CO)C[C@H](C)[C@@H](CN(C)CC2CC2)O3)cc1	0.2	1	7	-0.9	i
CO[C@H]1CN(C)C(=O)c2ccc(NC(=O)c3ccccc3)cc2OC[C@@H](C)N(C(C)=O)C[C@H]1C	-11	-1	1	-1.4	i
CCc1nc2ccc(C(=O)NCCN3CCNC3=O)cn2c1N(C)CCC(C)C	1.4	-6	-10	-0.2	i
CCOc1ccc(N(C)S(=O)(=O)c2ccc(C)c(C(=O)NCc3ccccc3OC)c2)cc1	-0.1	14	-21	16	i
O=C1c2ccccc2C(c2nnnn2-c2ccc3c(c2)OCCO3)N1CCc1ccccc1F (configuration not stated)	-0.4	-34*	-19*	2.2*	i
C[C@@H]1CN([C@@H](C)CO)S(=O)(=O)c2ccc(C#CCN(C)C)cc2O[C@H]1CN(C)S(=O)(=O)c1cccc(F)c1	3.7	-7	-10	1.8	i
C[C@@H]1CN([C@@H](C)CO)C(=O)Cc2cc(NC(=O)Nc3ccc4c(c3)OCO4)ccc2O[C@H]1CN(C)CC1CC1	18	1	6	-4.6	i
COCCNC(=O)c1cc2c(c(-c3cccc(-c4cccc(OC)c4)c3)n1)[C@@H](CCO)N(S(=O)C(C)(C)C)C2 (some centres not stated)	-3.3	-12	-17	2.9	i
O=C(C[C@@H]1C=C[C@H](NC(=O)c2ccncc2)[C@H](CO)O1)NCC1CCCCC1	-3.9	3	4	0.7	i
CCCN(C)C[C@H]1Oc2cc(-c3ccc(C)cc3)ccc2S(=O)(=O)N([C@@H](C)CO)C[C@H]1C	-6.1	-4	-5	-2.5	i
C[C@H](CO)N1C[C@H](C)[C@H](CN(C)Cc2ccc3c(c2)OCO3)Oc2ccc(NC(=O)c3ccncc3)cc2C1=O	-1.9	0	-5	-2.2	i
CC1(C(=O)Nc2ccccc2Br)CCN1C(=O)Cc1ccc(Cl)cc1Cl (configuration not stated)	0.4	-27	-64	-2.4	i
COc1cccc(C#Cc2ccc3c(c2)O[C@@H](CN(C)C(=O)c2ccccn2)[C@@H](C)CN([C@@H](C)CO)S3(=O)=O)c1	3.0	-4	-20	8.8	i
Cc1cccc(N2O[C@H]3C=C[C@@H]2C3)n1	-4.1	7	10	-1.1	i
COc1ccc(NC(=O)N(C)C[C@@H]2OCCCC[C@@H](C)Oc3ccc(NC(=O)Nc4ccc(F)cc4)cc3C(=O)N([C@@H](C)CO)C[C@@H]2C)cc1	-0.3	-1	7	-3.4	i
C[C@H](CO)N1C[C@H](C)[C@@H](CN(C)CC2CCCCC2)OCCCC[C@H](C)Oc2ccc(NC(=O)c3ccncc3)cc2C1=O	-1.3	-2	1	-1.1	i
CCCCNC(=O)C1(C)CCN1C(=O)c1cc2ccccc2s1 (configuration not stated)	-15	-2	5	2.3	i
COCC(=O)N(C)C[C@@H]1Oc2cc(Br)ccc2S(=O)(=O)N([C@H](C)CO)C[C@@H]1C	-3.4	2	5	-3.5	i
COc1ccccc1CNC(=O)C[C@@H]1C=C[C@H](NC(=O)CC2CC2)[C@@H](CO)O1	-2.1	2	-15	-3.8	i
CN(C)c1ccc(C=O)c(Oc2ccccc2)c1	-13	-13	-15	-5.5	.

Complete entries, quoted from the list. Values in the order: MLL AF4-AF9 inh, rRNA inh HTS, rRNA inh HTS OD600, rRNA inh HTS RFP, FGF22 binding
Results for C[C@@H]1CN([C@@H](C)CO)S(=O)(=O)c2ccc(C#CCN(C)C)cc2O[C@H]1CN(C)S(=O)(=O)c1cccc(F)c1 = 3.7, -7, -10, 1.8, i
Results for CCCN(C)C[C@H]1Oc2cc(-c3ccc(C)cc3)ccc2S(=O)(=O)N([C@@H](C)CO)C[C@H]1C = -6.1, -4, -5, -2.5, i
Results for O=C1c2ccccc2C(c2nnnn2-c2ccc3c(c2)OCCO3)N1CCc1ccccc1F (configuration not stated) = -0.4, -34*, -19*, 2.2*, i

Next structures
structure	MLL AF4-AF9 inh	rRNA inh HTS	rRNA inh HTS OD600	rRNA inh HTS RFP	FGF22 binding
COc1cccc(CNC(=O)[C@H]2CCCN2)c1	-3.7	25	24	2.3	i
C[C@H](CO)N1C[C@H](C)[C@H](CN(C)Cc2ccc(C(=O)O)cc2)Oc2c(NC(=O)Nc3cccc4ccccc34)cccc2C1=O	5.6	2	-6	-0.8	i
C[C@@H]1CCCCO[C@H](CN(C)S(=O)(=O)c2ccccc2)[C@@H](C)CN([C@H](C)CO)C(=O)c2cc(NC(=O)c3ccccc3)ccc2O1	-0.2	-4	-1	-4.3	i
COc1cc2cnc(-c3ccccc3)c(C(=O)c3ccc(OCc4ccccc4)cc3)c2cc1OC	0.0	1	6	-4.7	i
CCCNC(=O)N1CC2(CN(C(=O)c3cnccn3)C2)c2c([nH]c3cc(OC)ccc23)[C@@H]1CO	-3.8	-1	4	1.5	i
CC1(C(=O)NS(=O)(=O)c2ccc(Br)cc2)CCN1C(=O)C/C=C/c1ccccc1 (configuration not stated)	-2.5	-7	-6	-9.0	i
C[C@H](CO)N1C[C@H](C)[C@H](CN(C)S(=O)(=O)c2cn(C)cn2)Oc2ccc(NC(=O)Nc3ccccc3)cc2C1=O	0.9	-2	-3	-3.1	i
COc1ccc(CSc2ccc(S(=O)(=O)N3CCCCC3)cn2)cc1F	-5.5	22	5	-0.1	i
C=C1c2ccccc2O[C@H](C(=O)OCC)[C@@H]1C1CCCCC1	-22	-9	-1	-1.6	i
CN1CCN(C(=O)C[C@H]2CC[C@@H]3[C@@H](COc4ccc(NC(=O)c5cccs5)cc4C(=O)N3C)O2)CC1	-0.5	3	4	-2.7	i
Cc1noc(C)c1S(=O)(=O)Nc1ccc2c(c1)CC(=O)N([C@@H](C)CO)C[C@@H](C)[C@H](CN(C)Cc1ccncc1)O2	-2.8	1	5	-1.7	i
COc1ccccc1Cc1c(C(C)(C)C)nc2cc(C)c(Br)c(C)n12	0.0	20	5	1.6	i
C[C@@H]1CN([C@@H](C)CO)C(=O)CCCn2cc(nn2)CO[C@H]1CN(C)C(=O)Nc1ccc(-c2cccs2)cc1	-4.5&5.0	-6&4	-8&1	-0.4&-1.6	i
COc1ccc(NC(=O)Nc2ccc3c(c2)C(=O)N([C@H](C)CO)C[C@H](C)[C@@H](CN(C)Cc2ccc(C(F)(F)F)cc2)O3)cc1	-6.7	-1	-10	3.5	i
C[C@H]1CN([C@@H](C)CO)C(=O)c2cc(C#Cc3cccc(F)c3)cnc2O[C@H]1CN(C)C(=O)c1ccccc1F	-1.2	-5	-14	11	i
O=C(NCc1ccncc1)[C@@H]1CCCN1C(=O)[C@H]1CCCN1C(=O)c1ccccc1	2.6	13	9	0.9	i
COc1ccc(CNC(=O)C[C@H]2C[C@@H]3c4cc(NC(=O)CN(C)C)ccc4O[C@@H]3[C@H](CO)O2)cc1	0.2	3	3	-0.2	i
C[C@@H]1CN([C@H](C)CO)C(=O)c2cc(Br)cnc2O[C@H]1CN(C)CC1CCOCC1	-1.2	0	7	-2.7	i
Cc1cnc(CNC(=O)c2csc([C@@H]3C[C@H](O)[C@@H](CO)O3)n2)cn1	-5.3	3	19	-5.1	i
COc1ccc(NC(=O)N(C)C[C@@H]2Oc3ncc(/C=C/c4ccccc4)cc3C(=O)N([C@H](C)CO)C[C@@H]2C)cc1	11	-9	-13	-0.2	i

The list goes on.
structure	MLL AF4-AF9 inh	rRNA inh HTS	rRNA inh HTS OD600	rRNA inh HTS RFP	FGF22 binding
Cc1ccc(S(=O)(=O)N(C)C[C@@H]2Oc3c(NC(=O)NC(C)C)cccc3C(=O)N([C@@H](C)CO)C[C@@H]2C)cc1	-2.7	-6	-8	-2.2	i
O=C(C[C@@H]1C[C@@H]2c3cc(NC(=O)Nc4ccccc4)ccc3O[C@@H]2[C@H](CO)O1)NCc1ccncc1	-1.9	-1	0	-1.0	i
C[C@@H]1CN([C@@H](C)CO)C(=O)c2cc(NC(=O)Nc3ccc4c(c3)OCO4)ccc2O[C@H]1CN(C)C	-1.5	1	4	-2.4	i
COC(=O)c1ccc2nc(-c3ccco3)c(Cc3cccc(F)c3)n2c1	-1.9	9	21	7.1	i
COc1cccc(S(=O)(=O)Nc2ccc3c(c2)[C@@H]2C[C@H](CC(=O)NC4CCCCC4)O[C@@H](CO)[C@@H]2O3)c1	0.3	-14	-36	-3.5	+
C[C@H]1CN([C@@H](C)CO)S(=O)(=O)c2ccc(C#CC3CC3)cc2O[C@H]1CN(C)Cc1ccccc1	7.3	-17	-50	28	i
COCC#Cc1cnc2c(c1)C(=O)N([C@@H](C)CO)C[C@H](C)[C@H](CN(C)C(=O)C1CCCCC1)O2	-2.3	1	7	-1.2	i
CN(C)C(=O)c1cccc(-c2ccc([C@H]3[C@@H](CO)N4CCCCN(Cc5cccnc5)C[C@@H]34)cc2)c1	-1.7	-1	-6	-2.9	i
CCn1cnc2cc(NC(=O)COc3ccc(C)cc3)ccc21	-1.8	7	12	-0.8	i
C[C@H]1CN([C@@H](C)CO)S(=O)(=O)c2ccc(-c3ccncc3)cc2O[C@H]1CN(C)C(=O)Nc1ccc(C(F)(F)F)cc1	-1.6	-7	-15	3.8	+
C[C@H]1CN([C@@H](C)CO)C(=O)c2cc(C#CC3(O)CCCC3)cnc2O[C@H]1CN(C)S(C)(=O)=O	-3.5	-2	4	-1.7	i
CC(C)[C@H](COC=O)NC(=O)[C@H]1O[C@@H](n2ccc(N)nc2=O)[C@H](O)[C@@H]1O	-1.6	5	10	-8.5	i
CCCCN1C(=O)C(CC(=O)NC2CCCC2)CC(C(=O)N2CCOCC2)=C1C (configuration not stated)	-2.2	-1	4	-0.4	i
CCC(CC)c1nnc(NC(=O)Cc2c[nH]c3ccccc23)s1	7.8	-4	-11	8.8	i
CO[C@@H]1CN(C)C(=O)c2ccc(NS(=O)(=O)c3ccc(C)cc3)cc2OC[C@H](C)N(Cc2nccs2)C[C@H]1C	0.6	-4	-3	0.5	i
O=C(C[C@H]1C=C[C@@H](NC(=O)Nc2ccc3c(c2)OCO3)[C@@H](CO)O1)NCc1ccc(F)cc1	-0.1	-3	-4	-1.5	i
C[C@H](CO)N1C[C@H](C)[C@@H](CN(C)C(=O)Nc2ccc(C(F)(F)F)cc2)Oc2ccc(N(C)C)cc2C1=O	6.5	-5	-7	0.0	i
CC(C)CN(C(=O)CSc1nc2ccccc2[nH]1)c1c(N)n(Cc2ccccc2)c(=O)[nH]c1=O	1.8	3	0	0.1	i
O=C(O)C[C@H]1C[C@H]2c3cc(NC(=O)Nc4ccc(C(F)(F)F)cc4)ccc3O[C@H]2[C@@H](CO)O1	-3.1	2	2	1.0	i
C[C@@H]1CN([C@@H](C)CO)S(=O)(=O)c2ccc(-c3cccnc3)cc2O[C@H]1CN(C)Cc1cncnc1	2.4	-3	-4	-2.5	i

Shown as a hit in FGF22 binding, of those listed so far:
structure	MLL AF4-AF9 inh	rRNA inh HTS	rRNA inh HTS OD600	rRNA inh HTS RFP	FGF22 binding
COc1cccc(S(=O)(=O)Nc2ccc3c(c2)[C@@H]2C[C@H](CC(=O)NC4CCCCC4)O[C@@H](CO)[C@@H]2O3)c1	0.3	-14	-36	-3.5	+
C[C@H]1CN([C@@H](C)CO)S(=O)(=O)c2ccc(-c3ccncc3)cc2O[C@H]1CN(C)C(=O)Nc1ccc(C(F)(F)F)cc1	-1.6	-7	-15	3.8	+

Next entries
structure	MLL AF4-AF9 inh	rRNA inh HTS	rRNA inh HTS OD600	rRNA inh HTS RFP	FGF22 binding
C[C@@H]1CN([C@H](C)CO)C(=O)Cc2cc(NC(=O)Nc3ccc(F)cc3)ccc2O[C@H]1CN(C)C(=O)NC1CCCCC1	-1.6	0	3	-2.6	i
COc1ccc(S(=O)(=O)N(C)C[C@H]2Oc3ccc(NC(=O)CCC(F)(F)F)cc3C(=O)N([C@H](C)CO)C[C@H]2C)cc1	1.5	5	0	0.5	i
COc1ccc(S(=O)(=O)Nc2ccc3c(c2)C(=O)N([C@H](C)CO)C[C@H](C)[C@@H](CN(C)Cc2ccc(Cl)c(Cl)c2)OCCCC[C@@H](C)O3)cc1	-1.4	1	0	4.1	i
CN1CCN(c2ccc(CNC(=O)C3Cc4c(-c5ccccc5Oc5ccccc5)ccnc4O3)cc2)CC1 (configuration not stated)	22	-19	-42	-7.2	i
C[C@H]1CN([C@@H](C)CO)C(=O)c2cccc(NC(=O)Nc3ccccc3)c2O[C@H]1CN(C)S(=O)(=O)c1ccccc1	4.0	2	-6	0.8	i
COc1ccc(S(=O)(=O)Nc2ccc3c(c2)C(=O)N([C@H](C)CO)C[C@@H](C)[C@H](CN(C)C(=O)CCC(F)(F)F)OCCCC[C@@H](C)O3)cc1	-0.1	1	-5	4.8	i
COc1ccc(S(=O)(=O)Nc2ccc3c(c2)C(=O)N([C@@H](C)CO)C[C@@H](C)[C@H](CN(C)Cc2ccncc2)O3)cc1	-1.6	-2	-2	-1.8	i
C[C@@H]1CN([C@H](C)CO)S(=O)(=O)c2ccc(C#CC3(O)CCCC3)cc2O[C@@H]1CN(C)C(=O)Cc1ccccc1	3.2	0	-13	-0.4	i
CC(C)N1CCN(c2ccc(OCC3COC(Cn4cncn4)(c4ccc(Cl)cc4Cl)O3)cc2)CC1 (configuration not stated)	20	0	-3	5.7	i
